# LASV entry inh = blocks Lassa virus binding to or entry into cells; Lassa virus pseudotype entry inhibition, cell reporter; control for the full effect not named in the record; Potency, µM (top dose mostly 37.9 µM), inactives show at the top dose activity change, negative = inhibition, most hits filed as inhibitors; 300,000 tested, 1.2% active; AID 540256; active means well fitted inhibition curve with a large enough effect; inconclusive means small, poorly fitted or top-dose-only effect, or effect the other way; inactive means flat fitted curve, though single readings scatter; tested in HEK293 cells; also: % is scaled to controls: 0 for no effect and ±100 for the full control effect; nearly all actives have a fitted effect of over 50% in size; luciferase read-out
# Marburg entry inh = inhibitors of Marburg virus binding or cell entry | Marburg virus pseudotyped entry inhibition, cell reporter; control for the full effect not named in the record; about a third of the inactives were read at about 46 µM | Potency, µM (highest dose often 37.8 µM), for inactives: at the top dose activity change, negative = inhibition, most hits filed as inhibitors | 300,000 tested, 1.8% active; active = well fitted inhibition curve with a large enough effect; inconclusive = small, poorly fitted or top-dose-only effect, or effect the other way; inactive = flat fitted curve, though single readings scatter; tested in HEK293 cells; about a fifth of its hits are not listed in these tables; also: % is scaled to controls: 0 for no effect and ±100 for the full control effect; luciferase read-out
# Cruzain Triton = inhibitors of Trypanosoma cruzi cruzain with detergent; 200,000 tested, 0.43% active; P25779; purified cruzain, Z-FR-AMC fluorescence, 0.01% Triton; AID 1478; Potency, µM, for inactives: max response, negative = inhibition, usual class: inhibitors; active = well fitted curve in the direction sought with a large enough effect; inconclusive = small, poorly fitted or top-dose-only effect, or another doubt; inactive = no such curve, though single readings can be large; an effect the other way counts as inactive or inconclusive;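 also: plate controls were neutral wells for no effect and buffer without enzyme for full effect; nearly all actives have a fitted effect of over 40% in size; top concentration of the series not given in the record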
# Target sequence (P25779 123-467 limits assumed): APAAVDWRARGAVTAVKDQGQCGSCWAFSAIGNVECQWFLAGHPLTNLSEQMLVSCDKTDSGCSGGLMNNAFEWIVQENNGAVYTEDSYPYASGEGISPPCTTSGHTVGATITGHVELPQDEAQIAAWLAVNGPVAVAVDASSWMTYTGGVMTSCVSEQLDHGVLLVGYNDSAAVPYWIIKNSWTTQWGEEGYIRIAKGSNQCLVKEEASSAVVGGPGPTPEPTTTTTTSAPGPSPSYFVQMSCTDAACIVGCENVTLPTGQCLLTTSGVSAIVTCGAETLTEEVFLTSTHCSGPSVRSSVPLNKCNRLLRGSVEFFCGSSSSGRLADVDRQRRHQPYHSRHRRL
#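 Sodium acetate buffer (100 mM, pH 5.5) containing 5 mM DTT and 0.01% Triton X-100 hosted 1.5 nM cruzain and test compound for 15 min at room temperature. Cleavage of 2 uM Z-FR-AMC was then tracked by fluorescence.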
# 2A StopGo = lowers the luciferase signal of an FMDV 2A StopGo reporter | Potency, µM (highest dose often 57.9 µM), inactives show at the highest dose signal change, negative = less light | human cells with a luciferase reporter of 2A StopGo recoding; control for the full effect not named in the record | 410,000 tested, 1.2% active; active = well fitted falling curve with a large enough effect; inconclusive = small, poorly fitted or top-dose-only effect; inactive = no such curve, though single readings can be large or run the other way; tested in HEK293T cells; also: % is scaled to controls: 0 for no effect and ±100 for the full control effect; nearly all actives have a fitted effect of over 45% in size; luciferase light after 4 h
# RE007 growth inh = less growth of the S. pombe RE007 Vpr strain; S. pombe RE007 Vpr strain, BacTiter-Glo ATP luminescence, 24 h; control for the full effect not named in the record; Potency, µM (top dose mostly 92.2 µM), for the others: at the highest dose activity change, negative = less growth; 360,000 tested, 0.21% active; AID 651644; active = well fitted falling curve with a large enough effect; inconclusive = small, poorly fitted or top-dose-only effect; inactive = no such curve, though single readings can be large or run the other way;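 also: % is scaled to controls: 0 for no effect and ±100 for the full control effect; nearly all actives have a fitted effect of over 50% in size; the assay follows cell death caused by Vpr and the record does not say whether a fall means rescue or toxicity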
#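 Fission yeast strain RE007, carrying one chromosomally integrated HIV-1 vpr copy, was seeded at OD 0.01 in PMG+AL medium with 23 nL pinned compound. After 24 h at 30 °C and 99% humidity, viability was read by BacTiter-Glo luminescence.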
# SARS PLpro yeast = SARS-CoV PLP inhibition in yeast | AID 485353 | Potency, µM (doses to about 32.9 µM), for inactives: top-dose activity, positive = growth rescue | S. cerevisiae expressing SARS-CoV PLpro, growth rescue; control for the full effect not named in the record | 330,000 tested, 0.19% active; also: 0% is about no effect; nearly all actives have a fitted effect of over 55% in size; growth read by luminescence after 48 h
# NS1 function inh = inhibitors of influenza NS1 protein function | S. cerevisiae slowed by influenza A NS1, growth recovery by OD600 | Potency, µM (highest dose often 46.1 µM), without a hit: at the top dose activity, positive = more growth | 270,000 tested, 0.4% active; also: actives are rising curves; nearly all actives have a fitted effect of over 50% in size
#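 Growth recovery, yeast-based: influenza A NS1 expressed in S. cerevisiae causes slow growth, and suppressors are detected by OD600. The parent strain without NS1 is used as positive control.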
# Cruzain noTriton = blocks cruzain activity in detergent-free assay | P25779 | purified cruzain, Z-FR-AMC fluorescence, no detergent | Potency, µM, for the others: max response, negative = inhibition, actives largely listed as inhibitors | 200,000 tested, 2.3% active; active = well fitted curve in the direction sought with a large enough effect; inconclusive = small, poorly fitted or top-dose-only effect, or another doubt; inactive = no such curve, though single readings can be large; an effect the other way counts as inactive or inconclusive;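 also: plate controls were enzyme without inhibitor for no effect and buffer without enzyme for full effect; nearly all actives have a fitted effect of over 40% in size; top concentration of the series not given in the record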
#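 Detergent-free condition (0.00005% Triton X-100) in acetate buffer pH 5.5 with DTT. 1.5 nM enzyme and compound were pre-mixed 15 min, then 2 uM Z-FR-AMC substrate added; reaction progress from fluorescence change between first and third reads (60 s).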
# Starred values were filed as active, the others as inactive; ? = inconclusive; / = not tested or not shown; [ ] = another dose, or the depositor's remark. Unless noted, calls follow the shape of the dose curve; as a rule, active means well fitted rising curve with a large enough effect; inconclusive means small, poorly fitted or top-dose-only effect; inactive means no such curve, though single readings can be large or run the other way. Potency is read from the fitted curve at half-maximal effect.
# Sample of the layout (two entries):
SMILES,LASV entry inh,Marburg entry inh,Cruzain Triton,2A StopGo,RE007 growth inh,SARS PLpro yeast,NS1 function inh,Cruzain noTriton
COc1ccc(-n2ccc(=O)c(C(=O)O)n2)c(OC)c1,-4%[46.1 µM],9%[46.1 µM],/,-9%,12%,1%,-6%,/
COC1=Cc2c(ccc3ccc(=O)oc23)OC1(C)C,-19%,-26%,-7.8%,-22%,-2%[3.69 µM],-7%,-24%,-15%

# The listing, repeating the preview:
SMILES,LASV entry inh,Marburg entry inh,Cruzain Triton,2A StopGo,RE007 growth inh,SARS PLpro yeast,NS1 function inh,Cruzain noTriton
COc1ccc(-n2ccc(=O)c(C(=O)O)n2)c(OC)c1,-4%[46.1 µM],9%[46.1 µM],/,-9%,12%,1%,-6%,/
COC1=Cc2c(ccc3ccc(=O)oc23)OC1(C)C,-19%,-26%,-7.8%,-22%,-2%[3.69 µM],-7%,-24%,-15%
O=C(NCC(=O)N1CCN(c2ccccc2F)CC1)c1ccc(Br)o1,-16%[46.1 µM],-16%,/,10%,-5%,-4%,/,/
Cc1ccc(C(=O)C2CCN(CC(=O)NC3CCCC3)CC2)cc1,?,-8%[46.1 µM],/,4%,-7%,-1%,10%,/
Cc1nn(C(=O)c2ccco2)c(C)c1Sc1ccccc1,5%,1%,0.8%,-21%,5%,2%,6%,-7%
CCOc1ccc(NS(=O)(=O)c2csc(C(N)=O)c2)cc1,1%,?,/,27%,5%,1%,2%,/
CCOc1ccc(N=C2SC(C(=O)O)CC(=O)N2C)cc1 (stereo not given),-2%,-1%,7.9%,8%,16%,-3%,0%,3%
CC(=O)c1coc2ccc(OCCN3CCCCC3)cc12,14%,-2%,3.3%,/,-11%,-5%,?,-13%
O=C(Oc1ccc(/C=N/NC(=O)c2ccccn2)cc1)c1cccc(Br)c1,/,/,/,22%,8%,-2%,16%,/
Cc1cccc(N2CCN(C(=O)c3noc4c3CCCCC4)CC2)c1C,-13%[46.1 µM],/,-6.3%,-6%,/,/,/,7%
Cc1cc2cc(C)c3nnc(SCC(=O)N4CCCc5ccccc54)n3c2cc1C,/,2%,-9.4%,/,/,2%,6%,?
CC(=O)c1ccc(S(=O)(=O)N2CCN(CC#N)CC2)cc1,?,-1%[46.1 µM],/,2%,10%,0%,0%,/
O=C(NCCCc1ccccc1)c1c(O)nc2sccn2c1=O,14%,-9%,/,-3%,-14%,-4%,/,/
COc1ccc(OCCNC(=O)c2ccccc2OCC(=O)N2CCCCC2)cc1,0%,3%,-2.7%,-36%,-9%,20%,-36%,3%
Cc1c(NC(=O)CCC(=O)N2CCOCC2)c(=O)n(-c2ccccc2)n1C,?,3%,-1.8%,11%,11%,4%,10%,14%
CCOc1ccc(NC(=O)CN(C)C(=O)CSCc2cccc(C)c2)cc1OCC,3%,11%,/,-23%,-2%,7%,/,/
CCC(=NCCc1ccccc1)C1=C(O)CCC1=O,0%,-6%[46.1 µM],-0.6%,-8%,-13%,2%,-8%,0%
COc1ccc(N2Cc3ccccc3C2=NC(=O)c2cncc(Br)c2)cc1,25%,-6%,/,45%[activator],0%,2%,/,/
N#Cc1ccc(C2=NC(C(F)(F)F)(C(F)(F)F)c3c(n(Cc4ccco4)c(=O)[nH]c3=O)N2)cc1,15%,-1%,-3.0%,-11%,4%[3.69 µM],-8%,-1%,?
Cc1ccc(C(=O)/C=C/c2cc(Br)cc(Br)c2O)o1,/,/,/,?,-12%,-5%,-58%,/
CC(C)NC(=O)C(=O)NCCCN1CCOCC1,5%,-27%[46.1 µM],/,-5%,2%,-1%,-1%,/
Cc1[nH]c2ccccc2c1C1(O)C(=O)N(Cc2ccccc2)c2ccc(Br)cc21 (stereo not given),?,?,-10%,-20%,/,/,/,25%
COc1ccc(N2CCN(C(=O)CSc3nc4cc(OC)c(OC)cc4cc3C#N)CC2)cc1,-11%,6%[46.1 µM],-2.4%,-14%,0%,2%,?,?
Cc1cc(N2CCOCC2)nc2ccc(NC(=O)CCC(=O)N3CCN(c4ccccc4)CC3)cc12,?,3%[46.1 µM],/,0%,-3%,0%,13%,/
Cc1noc(C)c1C(=O)Nc1ccc(-c2nnc3n2CCCCC3)cc1,7%,?,/,-4%,-25%,1%,/,/
O=C(Nc1ccccn1)C1CCN(S(=O)(=O)c2cccs2)CC1,1%,?,-4.0%,/,1%,7%,-1%,1%
Cc1nn(Cc2ccccc2Cl)c(C)c1C(=O)NCC(c1cccs1)N1CCOCC1 (stereo not given),10%,11%,/,-5%,3%,-1%,/,/
COc1ccccc1C(=O)Nc1cccc(C(=O)c2ccccc2)c1,/,/,/,20%,7%,-8%,-7%,/
O=C(CCOc1ccccc1)Nc1ccccc1F,/,/,/,23%,21%,0%,-6%,/
CC(=O)Nc1ccc(S(=O)(=O)N(C)CC(=O)OCCOc2cccc(C)c2)cc1,-3%,-3%,/,-8%,-15%,-2%,-1%,/
O=C(N/N=C/C(Cl)=C/c1ccc([N+](=O)[O-])cc1)C(=O)Nc1ccccc1C(=O)O,6%,-5%[46.1 µM],/,45%[activator],-24%,-1%,9%,/
Nn1c(SCC(=O)Nc2ccc(S(N)(=O)=O)cc2)nnc1C(F)(F)F,/,/,/,-3%,5%,2%,1%,/
O=C(Nc1cccc2ncccc12)c1cccc(F)c1,20%,10%,-0.9%,-23%,7%,-5%,3%,-18%
NS(=O)(=O)c1cc(C(=O)OCC(=O)NC2CC2)ccc1Cl,3%,25%,3.3%,-19%,-7%,1%,4%,-6%
CS/C(=C(/C#N)S(=O)(=O)c1ccc(Cl)cc1)N1CCOCC1,/,/,/,-3%,-10%,-1%,3%,/
CC(=O)c1ccc(NC(=O)C2CCCN2S(=O)(=O)c2cccc3cccnc23)cc1 (stereo not given),/,/,-1.4%,-18%,-8%,6%,-48%,-5%
COc1ccc(CC(=O)NCC(=O)Nc2ccccc2Br)cc1,?,?,/,-11%,7%,-10%,-8%,/
COCCn1nnnc1C(c1cccc(OC)c1OC)N1CCN(C(=O)c2ccco2)CC1 (stereo not given),2%[46.1 µM],0%[46.1 µM],/,25%,-12%,0%,-3%,/
CC(C)Cn1c(=O)c(C(=O)Nc2cnccn2)c(O)c2ccccc21,2%,19%,6.4%,-10%,14%,0%,-7%,1%
Cc1cccc(C(=O)N2CCc3cc(CNC(=O)c4ccc(Br)o4)ccc32)c1,?,/,-0.1%,6%,/,/,/,-3%

# Fetched by compound from above, four records:
SMILES,LASV entry inh,Marburg entry inh,Cruzain Triton,2A StopGo,RE007 growth inh,SARS PLpro yeast,NS1 function inh,Cruzain noTriton
O=C(Nc1cccc2ncccc12)c1cccc(F)c1,20%,10%,-0.9%,-23%,7%,-5%,3%,-18%
NS(=O)(=O)c1cc(C(=O)OCC(=O)NC2CC2)ccc1Cl,3%,25%,3.3%,-19%,-7%,1%,4%,-6%
CC(=O)c1ccc(NC(=O)C2CCCN2S(=O)(=O)c2cccc3cccnc23)cc1 (stereo not given),/,/,-1.4%,-18%,-8%,6%,-48%,-5%
Nn1c(SCC(=O)Nc2ccc(S(N)(=O)=O)cc2)nnc1C(F)(F)F,/,/,/,-3%,5%,2%,1%,/

# (more compounds)
SMILES,LASV entry inh,Marburg entry inh,Cruzain Triton,2A StopGo,RE007 growth inh,SARS PLpro yeast,NS1 function inh,Cruzain noTriton
O=C(CCOc1ccccc1)Nc1ccnn1C1CCN(Cc2ccc(F)cc2)CC1,-29%,-17%,/,-22%,-10%,5%,-3%,/
CC(C)Sc1nc(N2CCOCC2)c2c3c(sc2n1)COC(C)(C)C3,?,?,-4.2%,14%,18%,6%,-1%,?
CCS(=O)(=O)Nc1ccc(-c2cn3ccsc3n2)cc1,23%[46.1 µM],/,0.4%,31%[activator],/,/,/,-12%
Cc1[nH]c2ccccc2c1C(=O)CN1C(=O)NC2(CC(C)CC(C)(C)C2)C1=O (stereo not given),?,?,-4.3%,-16%,7%,7%,0%,9%
Cc1cc(C(=O)c2cnc(/N=C/N(C)C)s2)c(F)cc1Cl,12%,7%[46.1 µM],/,-15%,-3%,0%,/,/
CCOc1ccc(-c2nc3scc(-c4cccs4)c3c(=O)[nH]2)cc1,2%,19%[46.1 µM],/,16%,12%,0%,/,/
CCOc1ccc(CNC(=O)C2CCN(Cc3cc4ccccc4n3Cc3ccccc3C)CC2)cc1,13%[46.1 µM],/,-2.7%,-12%,/,/,/,?
CC(=O)N1CCCc2cc(S(=O)(=O)N(Cc3ccccc3)C(C)C)ccc21,?,/,-3.7%,-26%,/,/,/,?
Cc1cccnc1NC(=O)c1cccc(S(=O)(=O)N2CCN(c3ccccc3)CC2)c1,-8%,-18%[46.1 µM],/,?,2%,-14%,/,/
CCC(Sc1nc(=O)cc(N)n1CCc1ccccc1)C(=O)Nc1ccccc1C#N (stereo not given),?,?,-9.6%,13%,-7%,8%,3%,-2%
O=C(Nc1cccc(Cl)c1)c1cc(S(=O)(=O)N2CCC3(CC2)OCCO3)ccc1F,12%[46.1 µM],/,0.2%,?,/,/,/,?
O=C(N/N=C\c1cc([N+](=O)[O-])ccc1N1CCCC1)c1ccccn1,-10%,-19%,/,-21%,-3%,-1%,3%,/
Cc1nn(C)c(Cl)c1C(=O)NCC(=O)NCc1ccccc1,-1%,12%,/,-9%,29%,-4%,/,/
COC(=O)c1cc(O)cc(OC)c1C(=O)c1c(O)cc(C)cc1O,/,/,/,-10%,12%,1%,5%,/
O=S(=O)(NCc1cccnc1)c1cccc2nsnc12,0%,-2%,4.7%,0%,1%,3%,3%,1%
CN(C)c1ccc(C(=O)NCC(c2cccs2)N2CCOCC2)cc1[N+](=O)[O-] (stereo not given),3%,23%,/,-2%,-17%,?,/,/
NS(=O)(=O)c1ccc(NC(=O)Cn2nc(C(=O)O)c3ccccc3c2=O)cc1,11%[46.1 µM],-5%[46.1 µM],/,22%,-10%,-1%,-7%,/
COc1ccc(OC)c(S(=O)(=O)Nc2ccc(O)c3ccccc23)c1,?,?,-6.1%,15%,4%,-46%,4%,?

# Compound activity deposited in PubChem BioAssay by National Center for Advancing Translational Sciences (NCATS).
